# Screening data as filed in PubChem BioAssay.
# HCMV UL50-53 inh = disrupts HCMV UL50-UL53 complex binding | HTRF UL50-UL53 interaction, normalized percent inhibition | inhibition, % (concentration not given with the values) | actives 0.15% (n = 190,000) | AID 1918969;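 active means both replicates at 50% or more, plus weaker picks with an unusually low signal ratio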;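 further: stock transfer was 100 nL into about 20 µL; 0% = negative control wells and 100% = wells with untagged competitor protein; inactives centre near -12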
# GIV Gai3 FP = GIV-Galpha-i interaction inhibition. Galpha-i3/FITC-GIV peptide fluorescence polarization, 90 min; stronger effect = lower value; scaled: aluminum fluoride 0%, vehicle 100%. P08753. actives 0.42% (n = 210,000). percent of control (FP), % (no concentration beside the values);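 active means replicate mean at 85% of control or lower, very high polarization wells dropped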;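 further: wells of about 15 µL received 100 nL stock; the first replicate is given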
# Target sequence (P08753 whole entry, looked up): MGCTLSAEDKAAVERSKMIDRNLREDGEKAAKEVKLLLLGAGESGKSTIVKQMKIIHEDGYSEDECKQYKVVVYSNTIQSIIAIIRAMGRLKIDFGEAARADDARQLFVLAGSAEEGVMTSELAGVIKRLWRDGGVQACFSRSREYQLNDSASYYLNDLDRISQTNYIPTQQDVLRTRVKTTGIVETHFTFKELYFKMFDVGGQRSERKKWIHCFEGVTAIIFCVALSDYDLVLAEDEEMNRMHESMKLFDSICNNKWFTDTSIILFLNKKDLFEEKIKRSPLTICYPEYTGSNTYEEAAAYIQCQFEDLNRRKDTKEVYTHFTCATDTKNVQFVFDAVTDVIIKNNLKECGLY
# Sa growth inh = blocks Staphylococcus aureus growth. S. aureus RN4220 growth, OD600, 20 h, 42 °C; stronger effect = lower value. relative growth, % (concentration not given with the values). actives 0.53% (n = 170,000);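 active means growth at 42 °C up to 50% and 20 or more points under that at 30 °C, or under 10% at both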;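 further: 300 nL library stock went into each well; scaled to the means of positive and negative controls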
# Sa growth inh second temp = recorded beside Sa growth inh, whose call it bears; relative growth, %; measured here: growth at 30 °C;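 optical density after 20 h as mean of two plates; 100% = untreated growth and lower means inhibition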
# * marks the source's active call; other numbers are inactive results; x = not tested or not shown; & = joins results of further samples. No enrichment for hits; overall some 0.83% were active at least once.
SMILES,HCMV UL50-53 inh,GIV Gai3 FP,Sa growth inh,Sa growth inh second temp
CCOc1ccc(C2C(C(=O)OC)=CN(CCOC)C=C2C(=O)OC)cc1,-10,x,103,96
CCC(=O)Nc1nc(-c2ccc3c(c2)CCN3C(C)=O)cs1,-14,99,106,88
O=C(c1ccccc1)c1ccccc1C(=O)c1ccccc1,6,100,108,80
Cc1cc2occ(CC(=O)OCc3nc4ccccc4c(=O)n3CC#N)c2cc1C,-26,x,84,81
Cc1cc(C)cc(OC(=O)c2snnc2C)c1,-17,102,102,91
Cc1cc(Nc2cccc(F)c2)n2nc(-c3ccco3)nc2n1,x,100,95,87
CCN1C(=O)/C(=C2\SC(=S)N(c3cccc(Cl)c3)C2=O)c2ccccc21,x,99,113,81
Cc1ccc(Nc2nc(C)cc(C)c2C(N)=O)cc1,x,108,114,84
O=C(CSc1ccccc1Cl)c1cccs1,-4,x,115,86
COCCNc1cc(C)nc2c(-c3ccc(C)cc3)c(C(F)(F)F)nn12,-3,99,x,x
CC(C)CN1CCc2nc(N3CCN(c4ncccn4)CC3)ncc2C1,x,106,95,86
O=C(CSc1cccc[n+]1[O-])NC1CCCc2ccccc21 (configuration not stated),-10,x,86,88
CCOC(=O)c1nn(-c2ccc(F)cc2)c(=O)cc1OCC(=O)NC1CCCC1,-37,103,97,97
CC(=O)N(Nc1ccccc1)c1ccccc1,x,102,103,91
O=C(c1ccccc1)c1cncc(Br)c1,-24,103,113,97
CCN1CCCC1CNC(=O)c1cc2c(s1)CS(=O)(=O)C2 (configuration not stated),1,111,88,91
O=C(Cn1nnnc1-c1ccccc1F)Nc1cnc2ccccc2c1,-16,106,x,x
S=c1nc[nH]c2nc(N3CCSCC3)sc12,-28,102,x,x
CC1CCN(C(=O)Cn2ncc3c4ccccc4n(Cc4ccccc4)c3c2=O)CC1,-7,104,92,93
COc1ccc(CCC(=O)NCc2nc3cccnc3n2Cc2cccc(OC)c2)cc1,x,108,96,85

# Six compounds picked at random from the list so far:
SMILES,HCMV UL50-53 inh,GIV Gai3 FP,Sa growth inh,Sa growth inh second temp
CCOc1ccc(C2C(C(=O)OC)=CN(CCOC)C=C2C(=O)OC)cc1,-10,x,103,96
CC(=O)N(Nc1ccccc1)c1ccccc1,x,102,103,91
COc1ccc(CCC(=O)NCc2nc3cccnc3n2Cc2cccc(OC)c2)cc1,x,108,96,85
S=c1nc[nH]c2nc(N3CCSCC3)sc12,-28,102,x,x
CC1CCN(C(=O)Cn2ncc3c4ccccc4n(Cc4ccccc4)c3c2=O)CC1,-7,104,92,93
Cc1ccc(Nc2nc(C)cc(C)c2C(N)=O)cc1,x,108,114,84

# Further records follow.
SMILES,HCMV UL50-53 inh,GIV Gai3 FP,Sa growth inh,Sa growth inh second temp
Cn1c(/C=C/C(=O)O)nc2ccccc21,-1,x,95,93
CCOc1ccc(N2C(=O)CN(Cc3ccc4c(c3)OCO4)[C@H]3CS(=O)(=O)C[C@H]32)cc1,-24,104,x,x
CCOC(=O)c1nc(N2CCC(C(N)=O)CC2)c2c(C)noc2n1,-20,104,x,x
C=CCn1c(=O)c2ccc(C(=O)NCC(C)C)cc2n2c(=O)n(CC(=O)NC3CCCC3)nc12,5,99,x,x
O=C1CCCN1CCCn1cnc2c([nH]c3ccccc32)c1=O,-9,104,111,82
CCCN1C(=O)C2(c3ccccc31)c1c(oc3cc(C)c(C)cc3c1=O)C(=O)N2CCCOC (configuration not stated),-10,101,102,86
CC(=O)NCc1ccc(C(=O)COC(=O)CCc2c[nH]c3ccccc23)o1,-32,x,87,86
COc1cccc(C(=O)NCCSc2c(-c3ccc(F)cc3)[nH]c3ccccc23)c1OC,-10,103,105,87
CCN(CC)c1ccc(-c2nocc2C#N)cc1,-74,179,91,84
O=C(CSc1nc2ncccc2[nH]1)NC1CCCC1,-3,x,92,88
CCOC(=O)c1c(-c2ccccc2)oc2cc(Br)c(O)cc12,-4,105,95,86
CN(C)c1ccc(C(CNC(=O)c2ccc(F)cc2)N(C)C)cc1 (configuration not stated),-22,99,x,x
Cc1cccc(C)c1-n1c(C2CC3CCC2O3)n[nH]c1=S (configuration not stated),6,99,101,89
C#CCSc1nc2ccccc2c2nc(-c3cccnc3)nn12,-4,100,x,x
O=C(O)CC1(C(=O)O)CCCC1,x,103,96,90
O=C1COc2cc(C(=O)n3ccnc3)ccc2N1,-10,109,x,x
O=C(CSc1ncc2c(n1)-c1ccccc1N(Cc1ccc(F)cc1)S2(=O)=O)c1ccc(Cl)cc1,x,106,94,88
Cc1ccc(C)c(C(=O)Cn2nc3n(CC(C)C)c(=O)c4ccc(C(=O)NCC(C)C)cc4n3c2=O)c1,-36,108,x,x
Cc1ccc2ncc(C(=O)NCCc3ccc(S(N)(=O)=O)cc3)c(=O)n2c1,-31,96,97,86
Cc1nn(-c2ccc(F)cc2)c(C)c1S(=O)(=O)NC1CC1,-20,108,x,x
O=C(COc1ncnc2ccccc12)Nc1ccc(Cl)cc1F,-20,x,86,66
O=S(=O)(NC(c1ccccc1)c1ccccc1)c1ccccc1,-9,x,123,127
Cc1cccc(Oc2coc3cc(OC(=O)c4ccc(F)cc4)ccc3c2=O)c1,x,99,94,82
O=C1CS/C(=N/c2ccccn2)N1C1CCCCC1,x,90,106,84
CCOc1ccc(NS(=O)(=O)c2cc(C(=O)Nc3cccc(Cl)c3)n[nH]2)cc1,-31,102,x,x
CCCC1=Nc2cc(C(=O)NCCc3ccc(OC)cc3OC)ccc2Sc2ccccc21,-1,109,98,89
Cc1ccc2c(c1)OC(=O)CC2c1ccccc1 (configuration not stated),x,112,74,100
COC(=O)c1c(NC(=O)Cc2coc3ccc(C(C)C)cc23)sc2c1CCC2,14&-22,114&101,89,93
Nc1ccc2oc(-c3ccccc3)nc2c1,4,x,100,64
CCN1CCCC1CN(Cc1cc2cc(OC)ccc2[nH]c1=O)C(=O)Nc1ccccc1 (configuration not stated),-16,106,115,86
CCc1nc2cc(N)ccc2n1C,28,96,91,84
O=C(NCc1cccs1)C1CCC(CNS(=O)(=O)c2cccc3nsnc23)CC1 (configuration not stated),-23,99,105,99
O=C(NC1CCCCC1)C(=S)NC1CCCC1,-10,107,134,99
CCOc1cc(/C=C/C(=O)C2C(=O)C=C(C)OC2=O)cc(Br)c1O (configuration not stated),-11,x,46,52
COC(=O)CSc1nnc(CNC(=O)c2cccs2)n1C,-12,104,107,90
CN(C)CCC(=O)/C=C/c1ccco1,-24,103,67,63
O=C(CCCN1C(=O)C(c2ccccc2)Oc2cccnc21)N1CCc2ccccc21 (configuration not stated),-31,103,96,94
O=C(CCn1nc(C(F)(F)F)cc1C1CC1)NCCC1=CCCCC1,x,106,80,88
Cc1ccc(Nc2nc(N)nc(COc3ccccc3C#N)n2)cc1,-4,x,151,92
CCn1c(=O)c2sccc2n2c(CCCC(=O)N3CCN(c4ccccc4OC)CC3)nnc12,x,100,117,90

# Profiles, looked up by structure. Screens in order: HCMV UL50-53 inh	GIV Gai3 FP	Sa growth inh	Sa growth inh second temp
# `CCOc1cc(/C=C/C(=O)C2C(=O)C=C(C)OC2=O)cc(Br)c1O` (configuration not stated) as listed: -11	x	46	52
# `COC(=O)CSc1nnc(CNC(=O)c2cccs2)n1C` as listed: -12	104	107	90
# `O=C(COc1ncnc2ccccc12)Nc1ccc(Cl)cc1F` as listed: -20	x	86	66
# `COC(=O)c1c(NC(=O)Cc2coc3ccc(C(C)C)cc23)sc2c1CCC2` as listed: 14&-22	114&101	89	93
# `Cc1ccc(Nc2nc(N)nc(COc3ccccc3C#N)n2)cc1` as listed: -4	x	151	92

# Remaining list, next part.
SMILES,HCMV UL50-53 inh,GIV Gai3 FP,Sa growth inh,Sa growth inh second temp
COC(=O)C(CCSC)NC(=O)c1cc2c(n(-c3ccccc3)c1=O)CC(C)(C)CC2=O (configuration not stated),-2,97,92,89
CC(C)c1ccc(NC(=O)CN2C(=O)COc3ccc(S(=O)(=O)Nc4ccccc4)cc32)cc1,x,112,79,81
COc1ccc(NS(=O)(=O)C(F)(F)F)cc1,5,x,111,94
COc1ccc(S(=O)(=O)N2CCc3cc4ccc(C)cc4nc32)cc1,4,100,x,x
COc1ccc(C2c3c(n(C)c4ccccc34)C(=O)N2CC(=O)NCCc2ccc(C)cc2)cc1 (configuration not stated),-13,103,x,x
O=C(Nc1cccc(Cl)c1)c1ccc(CS(=O)c2ccc(Cl)cc2)o1 (configuration not stated),x,99,81,72
CCC(SC1=Nc2ccccc2C2=NC(C)C(=O)N12)C(=O)N1CCc2ccccc21 (configuration not stated),-24,105,x,x
Fc1cccc(/C=N/N=C/c2cccc(F)c2)c1,-10&-21,98,x,x
COc1ccc(Cn2c(CCC(=O)N3CCOCC3)nc3cccnc32)cc1,10&-40,105&95,100,100
CN(C)n1cccc1/C=C(\C#N)S(=O)(=O)c1ccccn1,-3,103,106,91
CC1CCc2c(sc(NC(=O)COc3ccccc3)c2C(=O)Nc2ccccc2Cl)C1 (configuration not stated),38,106,105,103
Cc1cc(C)c(S(=O)(=O)Nc2ccc3[nH]c(=O)[nH]c3c2)c(C)c1,x,104,92,90
COc1ccc(-c2cc(C(C)=O)c(C)n2CCC(=O)Nc2cc(C)ccc2OC)cc1,x,102,93,87
CCCCOC(=O)c1ccc(Nc2ncnc3c2cnn3-c2cccc(C)c2)cc1,x,97,94,97
Cc1ccc(NC(CNS(=O)(=O)c2ccc(Cl)cc2)c2ccccc2)cc1 (configuration not stated),-7,107,109,99
O=C(COc1ccc(F)cc1)Nc1ccc2nc(SCC(=O)N3CCOCC3)sc2c1,-8,113,107,77
Cc1ccc(C)c(Cn2c3ccccc3c3cnn(CC(=O)NCC(C)c4ccccc4)c(=O)c32)c1 (configuration not stated),-6,103,104,91
Cn1cccc1CNCc1ccccn1,-25,109,94,90
CO/N=C1\CN(c2nc3c(cc2F)c(=O)c(C(=O)O)cn3C2CC2)CC1CN (configuration not stated),-33,x,-1.0*,-0.1*
COc1cc(/C=N/NC(=O)c2sc(N)nc2C)ccc1O,-65,100,101,77
CC(C)(C)C(=O)CSc1nc2ccccc2c(=O)n1CC1CC1,-13,94,95,94
CCOC(=O)CSc1nc2ncccc2c(=O)n1Cc1ccccc1,-14,99,97,87
CC(C)(C)C(O)(CC#CCN1CCCC1)c1ccccc1 (configuration not stated),x,104,117,91
COCCNC(=O)c1ccc(NC(=O)c2nnc(C3CCCCC3)s2)cc1,-29,97,x,x
COc1ccc(CCNc2ncnc3c2c(-c2ccccc2)cn3-c2ccc(F)cc2)cc1OC,x,105,102,77
Cc1ccc(C)n1CCN1CCN(C(=O)c2cccs2)CC1,-40,x,107,79
COc1ccc(N2C(=O)c3cc(C(C)(C)C)nn3CC2(C)C(=O)NC2CCCCC2)c(OC)c1 (configuration not stated),14,101,x,x
O=C1C=CC(=O)N1c1ccccc1N1CCCCCC1,3,101,65,58
Cc1cccc2cc3c(nc12)N(S(=O)(=O)c1ccc(C(C)C)cc1)CC3,-17,97,x,x
CC(C)Nc1nnc(SCC(=O)Nc2c(C#N)oc3ccccc23)s1,-6,x,75,45
COc1ccc(N2CCN(Cc3nc4c(c(=O)n(C)c(=O)n4C)n3C(C)C)CC2)cc1,x,103,100,86
COc1ccc2c(c1)c(NC(C)=O)c1n2CC(C)(C(=O)NC2CCCCC2)N(C2CCCCC2)C1=O (configuration not stated),83,99,x,x
Fc1ccc(-c2cc(-c3nnco3)[nH]n2)cc1,-19,99,104,85
Fc1ccc(C=Nc2ccc3c(c2)OCO3)cc1,-4,x,87,91
CC(C)C(NC(=O)Cc1cccc2ccccc12)C(=O)N1CCN(c2ncccn2)CC1 (configuration not stated),-15,x,80,93
O=C(CCCSc1nc2sc3c(c2c(=O)[nH]1)CCCC3)NCCCO,7,101,x,x
CCc1ccc(N2C(=O)NC(=O)/C(=C\c3ccc(OC(C)C(=O)O)cc3)C2=O)cc1 (configuration not stated),78*,100,x,x
CC(C)C(=O)N1CCC(N2CCN(Cc3ccc(F)cc3)C(=O)C2=O)CC1,5,104,x,x
Cc1ccc(CSc2nc(-c3cccs3)ccc2C#N)cc1,-30,103,99,90
COc1cccc(NC(=O)c2oc3ccccc3c2NC(=O)C23CC4CC(CC(C4)C2)C3)c1,-5,100,95,92
S=C1NCN(C2CCCC2)CN1,-34,108,96,83
CC(C)COc1ccc2[nH]c3c(c2c1)CCC3,-2,x,95,97
CCOC(=O)c1c(S(=O)(=O)NCC(=O)Nc2cc(C)ccc2OC)c(C)n(C)c1C,x,112,103,90
COC(=O)C1=CNC=C(C(=O)OC)C1c1ccc(Cl)cc1,-32,104,94,82
Cc1cc2ncc(C(N)=O)cn2n1,-24,101,x,x
CS(=O)(=O)N1CCN(c2ccnc3cc(Cl)ccc23)CC1,0,100,97,91
CN(CC(=O)N1CCN(c2ccccc2)CC1)S(=O)(=O)c1ccccc1,1,x,119,87
O=C(Nc1nnc(C2CC(=O)N(c3ccccc3)C2)s1)c1sc2ccccc2c1Cl (configuration not stated),-22,104,x,x
CCOC(=O)C(C(=O)Nc1nc2ccccc2s1)C1CCCCC1 (configuration not stated),-10,104,63,63
Cc1cc(C(=O)OC(C)C)ccc1-c1ccc(C=C(C#N)C#N)o1,-3,104,94,81
O=S(=O)(NCCCN1CCOCC1)c1cc(Br)c(Br)s1,x,101,111,89
CCNC(=O)c1ccccc1Sc1ccccc1CO,1,105,119,105
